From PubChem
Yeast UUG start = alters start codon recognition fidelity in yeast; S. cerevisiae UUG-firefly luciferase reporter, luminescence/redox ratio; activity score, % at 18.7 µM; hit rate 0.13% among 350,000;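 active = replicate mean at a twofold rise or more, about +100% in these data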;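 note: firefly luciferase made from a UUG start codon reports start codon fidelity; reporter light over untreated wells divided by growth signal over untreated wells; some hits fall short of that in this replicate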
HIV Env fusion = inhibitors of HIV Env-mediated cell fusion. hit rate 1.1% among 360,000. inhibition, % at 12.3 µM. HeLa-JRFL Env/CEM21 cell fusion, luciferase;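 active = mean replicate inhibition score of at least 50 and every replicate individually at or above 50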;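 note: 0% = plate neutral controls and 100% = maraviroc near 300 nM; one replicate is shown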
Numbers without * were called inactive; [ ] = another dose, or the depositor's remark. Not all compounds are listed. The share of hits here may be higher or lower than overall.

SMILES	Yeast UUG start	HIV Env fusion
C[C@@H]1CN([C@@H](C)CO)C(=O)c2cc(NS(=O)(=O)c3ccc(F)cc3)ccc2O[C@@H]1CN(C)C(=O)Nc1ccc2c(c1)OCO2	10	9[16.7 µM]
C[C@H](CO)N1C[C@H](C)[C@@H](CN(C)CC2CCCCC2)Oc2ccc(NC(=O)Cc3ccccc3)cc2CC1=O	7	-4[16.7 µM]
O=C(C[C@@H]1CC[C@H]2NC[C@@H](O)COC[C@@H]2O1)Nc1nccs1	-15	-18[16.7 µM]
O=C(Cc1ccccn1)N[C@@H]1C=C[C@H](CC(=O)N2CCCCC2)O[C@H]1CO	-12	20[16.7 µM]
Cc1noc(C)c1S(=O)(=O)Nc1cccc2c1O[C@@H](CN(C)CC1CCCCC1)[C@@H](C)CN([C@H](C)CO)C2=O	28	-25[16.7 µM]
C[C@@H]1CCCCO[C@H](CN(C)C(=O)NC2CCCCC2)[C@H](C)CN([C@H](C)CO)C(=O)c2cc(NC(=O)Nc3ccc(C(F)(F)F)cc3)ccc2O1	5	0[16.7 µM]
C[C@H](CO)N1C[C@H](C)[C@H](CN(C)S(=O)(=O)c2ccc(Cl)cc2)OCCCC[C@H](C)Oc2ccc(NC(=O)CCCN(C)C)cc2C1=O	-4	-4[16.7 µM]
C[C@H](CO)N1C[C@H](C)[C@H](CN(C)S(=O)(=O)c2ccc(Cl)cc2)Oc2ccc(NC(=O)Cn3cnnn3)cc2CC1=O	3	-2[16.7 µM]
CO[C@@H]1CN(C)C(=O)c2cc(NC(=O)c3cc(C)on3)ccc2OC[C@H](C)N(C)C[C@H]1C	2	-20[16.7 µM]
C[C@H]1CN([C@@H](C)CO)S(=O)(=O)c2ccc(C#CC(C)(C)O)cc2O[C@H]1CN(C)C(=O)C1CCCCC1	3	-143[16.7 µM]
COc1cccc(-c2cnc3c(c2)C(=O)N([C@H](C)CO)C[C@@H](C)[C@@H](CN(C)Cc2ccc(C(=O)O)cc2)O3)c1	4	-14[16.7 µM]
COc1ccccc1CN(C)C[C@@H]1OCc2cnnn2CCCC(=O)N([C@@H](C)CO)C[C@@H]1C	8	-8[16.7 µM]
C[C@@H]1CCCCO[C@@H](CN(C)C(=O)C2CCCCC2)[C@@H](C)CN([C@@H](C)CO)C(=O)c2cc(NS(C)(=O)=O)ccc2O1	10	-20[16.7 µM]
C[C@@H]1CN([C@@H](C)CO)C(=O)c2cc(/C=C/c3ccccc3)cnc2O[C@H]1CN(C)Cc1ccccc1F	19	-4[16.7 µM]
O=C(C[C@H]1CC[C@H]2NC[C@H](O)COC[C@@H]2O1)NC1Cc2ccccc2C1	-10	2[16.7 µM]
C[C@@H]1CN([C@H](C)CO)C(=O)c2cc(NC(=O)Nc3ccc(C(F)(F)F)cc3)ccc2O[C@@H](C)CCCCO[C@H]1CN(C)S(=O)(=O)c1ccccc1	-1	26[16.7 µM]
C[C@@H]1CN([C@@H](C)CO)C(=O)c2cc(-c3cccnc3)cnc2O[C@H]1CN(C)C(=O)Nc1ccc(F)cc1	0	-2[16.7 µM]
CCCNC(=O)N(C)C[C@@H]1Oc2ncc(-c3ccc(OC)cc3)cc2C(=O)N([C@@H](C)CO)C[C@H]1C	-1	23[16.7 µM]
C[C@@H]1CCCCO[C@H](CN(C)S(C)(=O)=O)[C@@H](C)CN([C@H](C)CO)C(=O)c2cc(NS(=O)(=O)c3ccc(Cl)cc3)ccc2O1	-3	-12[16.7 µM]
CC(C)C#Cc1ccc2c(c1)O[C@H](CN(C)C(=O)c1ccccn1)[C@H](C)CN([C@H](C)CO)S2(=O)=O	3	-2[16.7 µM]
COc1ccc(S(=O)(=O)Nc2ccc3c(c2)C(=O)N([C@H](C)CO)C[C@@H](C)[C@H](CN(C)Cc2ccc(Cl)c(Cl)c2)O3)cc1	10	-3[16.7 µM]
C[C@H]1CN([C@@H](C)CO)S(=O)(=O)c2ccc(C#CCN(C)C)cc2O[C@@H]1CN(C)S(C)(=O)=O	21	9[16.7 µM]
Cc1ccc(S(=O)(=O)N(C)C[C@@H]2Oc3ccc(NC(=O)Cc4cn(C)c5ccccc45)cc3C(=O)N([C@H](C)CO)C[C@@H]2C)cc1	4	14[16.7 µM]
O=C(C[C@@H]1CC[C@H](NC(=O)C2CCC2)[C@H](CO)O1)NC1CCC1	-13	-4[16.7 µM]
O=C(C[C@H]1CC[C@@H]2[C@H](COC[C@@H](O)CN2C(=O)c2cccnc2)O1)NCc1ccc(Cl)cc1	-13	0[16.7 µM]

Among those listed so far, five contain fluorine.
SMILES	Yeast UUG start	HIV Env fusion
C[C@@H]1CN([C@@H](C)CO)C(=O)c2cc(NS(=O)(=O)c3ccc(F)cc3)ccc2O[C@@H]1CN(C)C(=O)Nc1ccc2c(c1)OCO2	10	9[16.7 µM]
C[C@@H]1CCCCO[C@H](CN(C)C(=O)NC2CCCCC2)[C@H](C)CN([C@H](C)CO)C(=O)c2cc(NC(=O)Nc3ccc(C(F)(F)F)cc3)ccc2O1	5	0[16.7 µM]
C[C@@H]1CN([C@@H](C)CO)C(=O)c2cc(/C=C/c3ccccc3)cnc2O[C@H]1CN(C)Cc1ccccc1F	19	-4[16.7 µM]
C[C@@H]1CN([C@H](C)CO)C(=O)c2cc(NC(=O)Nc3ccc(C(F)(F)F)cc3)ccc2O[C@@H](C)CCCCO[C@H]1CN(C)S(=O)(=O)c1ccccc1	-1	26[16.7 µM]
C[C@@H]1CN([C@@H](C)CO)C(=O)c2cc(-c3cccnc3)cnc2O[C@H]1CN(C)C(=O)Nc1ccc(F)cc1	0	-2[16.7 µM]

(more compounds)
SMILES	Yeast UUG start	HIV Env fusion
O=C(Cc1ccccn1)NCC[C@@H]1CC[C@@H](NS(=O)(=O)c2ccc(Cl)cc2)[C@H](CO)O1	-10	12[16.7 µM]
CCCNC(=O)N[C@H]1CC[C@H](CC(=O)NC2CCC2)O[C@H]1CO	-5	-1[16.7 µM]
C[C@@H]1CCCCO[C@H](CN(C)Cc2ccc(C(F)(F)F)cc2)[C@H](C)CN([C@H](C)CO)C(=O)c2cc(NS(=O)(=O)c3cccs3)ccc2O1	9	60*[16.7 µM]
Cc1cc(C(=O)Nc2cccc3c2O[C@@H](CN(C)Cc2ccc4c(c2)OCO4)[C@H](C)CN([C@H](C)CO)C3=O)n(C)n1	-2	-22[16.7 µM]
COc1ccccc1NC(=O)N[C@H]1CC[C@H](CC(=O)N2CCC(Cc3ccccc3)CC2)O[C@@H]1CO	17	-3[16.7 µM]
COCCNC(=O)C[C@@H]1C=C[C@@H](NC(=O)NC2CCCCC2)[C@@H](CO)O1	-11	-2[16.7 µM]
C[C@H]1CCCCO[C@H](CN(C)C(=O)Nc2ccc(F)cc2)[C@@H](C)CN([C@@H](C)CO)C(=O)c2cc(NC(=O)c3ccncc3)ccc2O1	-4	-13[16.7 µM]
COCC#Cc1ccc2c(c1)O[C@H](CN(C)Cc1ccncc1)[C@H](C)CN([C@H](C)CO)S2(=O)=O	6	-22[16.7 µM]
Cc1noc(C)c1NC(=O)N(C)C[C@H]1Oc2ccc(NS(=O)(=O)c3c(C)noc3C)cc2CC(=O)N([C@@H](C)CO)C[C@H]1C	-5	0[16.7 µM]
CC(=O)N(C)C[C@@H]1Oc2ncc(-c3ccc(C#N)cc3)cc2C(=O)N([C@@H](C)CO)C[C@H]1C	-2	-4[16.7 µM]
COc1ccc(NC(=O)Nc2ccc3c(c2)CC(=O)N([C@@H](C)CO)C[C@H](C)[C@@H](CN(C)S(=O)(=O)c2cccs2)O3)cc1	-1	8[16.7 µM]
O=C(C[C@H]1CC[C@@H](NC(=O)C2CCC2)[C@H](CO)O1)NCc1ccccc1Cl	-17	9[16.7 µM]
CC(C)NC(=O)Nc1cccc2c1O[C@H](CN(C)C(=O)NC1CCCCC1)[C@@H](C)CN([C@@H](C)CO)C2=O	3	-2[16.7 µM]
C[C@@H]1CCCCO[C@H](CN(C)C(=O)Nc2ccccc2)[C@H](C)CN([C@@H](C)CO)C(=O)c2cc(NC(=O)C3CCCCC3)ccc2O1	-3	-3[16.7 µM]
Cc1ccc(S(=O)(=O)Nc2ccc3c(c2)C(=O)N([C@H](C)CO)C[C@H](C)[C@H](CN(C)S(=O)(=O)c2ccccc2)O3)cc1	55	37[16.7 µM]
C[C@@H]1CN([C@@H](C)CO)C(=O)c2cccc(NC(=O)c3cnccn3)c2O[C@@H]1CN(C)Cc1ccc(C(F)(F)F)cc1	-8	23[16.7 µM]
CCC(=O)Nc1ccc2c(c1)OC[C@@H](C)N(C(=O)CN1CCOCC1)C[C@H](C)[C@@H](OC)CN(C)C2=O	-11	-9[16.7 µM]
C[C@@H]1CN([C@H](C)CO)C(=O)c2cc(NC(=O)Nc3ccc(F)cc3)ccc2O[C@H]1CN(C)C(=O)Nc1ccccc1	-1	-8[16.7 µM]
CCC(=O)N(C)C[C@H]1Oc2cc(-c3ccccc3C)ccc2S(=O)(=O)N([C@H](C)CO)C[C@H]1C	0	37[16.7 µM]
CC(C)NC(=O)N[C@@H]1CC[C@H](CC(=O)O)O[C@@H]1CO	-14	-1[16.7 µM]
O=C(C[C@H]1C[C@H]2c3cc(NC(=O)Nc4ccc(C(F)(F)F)cc4)ccc3O[C@H]2[C@@H](CO)O1)NCC1CC1	-20	-6[16.7 µM]
Cc1noc(C)c1S(=O)(=O)N(C)C[C@@H]1Oc2ccc(NC(=O)CCCN(C)C)cc2CC(=O)N([C@@H](C)CO)C[C@H]1C	-5	12[16.7 µM]
C[C@H]1CN([C@@H](C)CO)C(=O)Cc2cc(NS(=O)(=O)c3ccc(F)cc3)ccc2O[C@@H]1CN(C)Cc1ccc(Oc2ccccc2)cc1	0	-12[16.7 µM]
CNC[C@@H]1Oc2ccc(NS(=O)(=O)c3c(C)noc3C)cc2C(=O)N([C@H](C)CO)C[C@@H]1C	-5	-11[16.7 µM]
C[C@@H]1CN([C@H](C)CO)C(=O)c2cc(NC(=O)CCC(F)(F)F)ccc2O[C@@H]1CN(C)C(=O)NC1CCCCC1	6	-8[16.7 µM]

Shown in markdown: part of the list above
| SMILES | Yeast UUG start | HIV Env fusion |
| --- | --- | --- |
| C[C@H](CO)N1C[C@H](C)[C@H](CN(C)S(=O)(=O)c2ccc(Cl)cc2)Oc2ccc(NC(=O)Cn3cnnn3)cc2CC1=O | 3 | -2[16.7 µM] |
| C[C@@H]1CCCCO[C@H](CN(C)C(=O)Nc2ccccc2)[C@H](C)CN([C@@H](C)CO)C(=O)c2cc(NC(=O)C3CCCCC3)ccc2O1 | -3 | -3[16.7 µM] |

Later entries:
SMILES	Yeast UUG start	HIV Env fusion
COc1cccc(NC(=O)N(C)C[C@H]2Oc3cc(/C=C/c4ccccc4)ccc3S(=O)(=O)N([C@H](C)CO)C[C@H]2C)c1	13	-10[16.7 µM]
C[C@H](CO)N1C[C@H](C)[C@@H](CN(C)Cc2cccnc2)Oc2cc(C3=CCCC3)ccc2S1(=O)=O	-4	-15[16.7 µM]
Cc1noc(C)c1NC(=O)N(C)C[C@@H]1OCCCC[C@@H](C)Oc2ccc(NC(=O)Nc3ccc(C(F)(F)F)cc3)cc2C(=O)N([C@H](C)CO)C[C@H]1C	-16	24[16.7 µM]
C[C@@H]1CN([C@H](C)CO)S(=O)(=O)c2ccc(Br)cc2O[C@H]1CN(C)C(=O)CC1CC1	10	20[16.7 µM]
COCC(=O)N(C)C[C@H]1Oc2ncc(C3=CCCC3)cc2C(=O)N([C@H](C)CO)C[C@@H]1C	-7	4[16.7 µM]
COC(=O)C[C@H]1CC[C@H]2[C@@H](COc3ccc(NC(=O)NC(C)C)cc3C(=O)N2C)O1	-6	-6[16.7 µM]
COc1ccc(S(=O)(=O)N(C)C[C@@H]2Oc3ccc(NC(=O)NC(C)C)cc3CC(=O)N([C@@H](C)CO)C[C@H]2C)cc1	6	-4[16.7 µM]
CS(=O)(=O)Nc1ccc2c(c1)[C@H]1C[C@H](CC(=O)NC3CCCCC3)O[C@@H](CO)[C@H]1O2	-5	-4[16.7 µM]
CCCNC(=O)C[C@@H]1CC[C@@H]2[C@H](COc3ccc(NS(=O)(=O)CC)cc3C(=O)N2C)O1	-18	-5[16.7 µM]
COc1cccc(-c2ccc3c(c2)O[C@H](CN(C)C(=O)C2CCC2)[C@H](C)CN([C@H](C)CO)S3(=O)=O)c1	-20	2[16.7 µM]
C[C@@H]1CN([C@@H](C)CO)C(=O)Cc2cc(NS(=O)(=O)c3ccc(Cl)cc3)ccc2O[C@H]1CN(C)S(=O)(=O)c1ccc(Cl)cc1	-4	8[16.7 µM]
O=C(NCC[C@@H]1CC[C@@H](NC(=O)c2cnccn2)[C@H](CO)O1)c1ccc2c(c1)OCO2	-3	17[16.7 µM]
O=C(C[C@@H]1C=C[C@@H](NC(=O)NC2CCCC2)[C@@H](CO)O1)NCc1ccc(F)cc1	-6	12[16.7 µM]
CCCC#Cc1cnc2c(c1)C(=O)N([C@@H](C)CO)C[C@@H](C)[C@H](CN(C)C(=O)c1ccc(F)cc1)O2	23	8[16.7 µM]
C[C@@H]1CN([C@@H](C)CO)S(=O)(=O)c2ccc(C3=CCCCC3)cc2O[C@H]1CN(C)C(=O)c1ccncc1	-12	-7[16.7 µM]
CCC(=O)Nc1ccc2c(c1)OC[C@@H](C)N(C(=O)NC(C)C)C[C@@H](C)[C@@H](OC)CN(C)C2=O	-2	-10[16.7 µM]
O=C(C[C@H]1CC[C@@H]2[C@H](COC[C@@H](O)CN2C(=O)Nc2ccc(F)cc2)O1)NCCc1ccccc1	56	-11[16.7 µM]
COc1ccc(S(=O)(=O)N(C)C[C@@H]2OCCCC[C@H](C)Oc3ccc(NC(=O)NC4CCCCC4)cc3C(=O)N([C@H](C)CO)C[C@@H]2C)cc1	1	6[16.7 µM]
C[C@@H]1CCCCO[C@H](CN(C)Cc2ccncc2)[C@@H](C)CN([C@H](C)CO)C(=O)c2cc(NS(=O)(=O)c3ccc(F)cc3)ccc2O1	-3	-1[16.7 µM]
C[C@H](CO)N1C[C@H](C)[C@@H](CN(C)C(=O)C2CCC2)Oc2ncc(C#CC3CCCC3)cc2C1=O	17	7[16.7 µM]
C[C@@H]1CN([C@@H](C)CO)S(=O)(=O)c2ccc(C#CC3CC3)cc2O[C@@H]1CN(C)C(=O)CC1CC1	5	12[16.7 µM]
